AF4-AF9 inh: inhibitors of AF4 peptide binding to AF9, primary screen, biochemical, AlphaScreen, biotin-AF4 peptide, FLAG-AF9, single point; 350,000 tested, 0.47% active; Protein AF-9 (Homo sapiens), P42568; inhibition, % at 10 µM;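 active means every replicate reaching a set inhibition limit, whatever the replicate mean, cut at about 25% in these data; inconclusive means mean inhibition reaches that limit but some replicates miss it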;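 further: 0% = plate neutral control median and 100% = total signal loss; the record names both 10 and 1 µM as test concentration; the first replicate is given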
Target sequence (P42568 whole entry, looked up): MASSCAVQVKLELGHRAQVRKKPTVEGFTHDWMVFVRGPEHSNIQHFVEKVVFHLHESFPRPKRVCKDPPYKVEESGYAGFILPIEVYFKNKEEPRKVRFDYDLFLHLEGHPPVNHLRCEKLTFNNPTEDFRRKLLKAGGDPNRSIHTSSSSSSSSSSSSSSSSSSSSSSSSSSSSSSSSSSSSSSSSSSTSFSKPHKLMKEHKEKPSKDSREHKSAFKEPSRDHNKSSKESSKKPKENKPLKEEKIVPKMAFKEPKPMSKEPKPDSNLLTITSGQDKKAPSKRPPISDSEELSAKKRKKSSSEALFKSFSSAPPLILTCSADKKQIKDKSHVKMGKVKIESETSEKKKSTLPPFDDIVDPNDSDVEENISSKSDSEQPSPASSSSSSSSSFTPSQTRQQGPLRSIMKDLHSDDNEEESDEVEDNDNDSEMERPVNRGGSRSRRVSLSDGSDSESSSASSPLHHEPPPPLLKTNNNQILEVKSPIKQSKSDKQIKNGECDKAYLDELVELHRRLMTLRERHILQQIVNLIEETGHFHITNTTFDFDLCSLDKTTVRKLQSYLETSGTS
Starred values were filed as active, the others as inactive; & = joins results of further samples.

For COc1ccc(NC(=O)Nc2ccc3c(c2)C(=O)N([C@@H](C)CO)C[C@H](C)[C@H](CN(C)C(=O)NC2CCCCC2)O3)cc1 the results were AF4-AF9 inh 0.1.
Screening CC(C)C[C@@H](CN1CCC[C@@H]1CN1C(=S)NC[C@@H]1Cc1ccccc1)N1C[C@H](Cc2ccc(O)cc2)N(CC2CCCCC2)C1=S returned AF4-AF9 inh 7.9.
For C[C@@H]1CN([C@H](C)CO)C(=O)c2cc(NS(=O)(=O)c3ccccc3)ccc2O[C@H]1CN(C)S(=O)(=O)c1ccccc1 the results were AF4-AF9 inh 3.0.
`CN1C(=O)c2cc(NC(=O)C3CCCC3)ccc2OC[C@@H]2O[C@H](CC(=O)Nc3ccccc3)CC[C@@H]21` gave AF4-AF9 inh -0.2.
COc1cccc(-c2nc(-c3ccccc3)c3ccc(Cl)cc3n2)c1 was read as AF4-AF9 inh -6.8.
For CCC(=O)N1[C@H](CO)[C@H]2c3ccccc3N(C(=O)Nc3cccc(Cl)c3)C[C@H]21 the results were AF4-AF9 inh -1.2.
`COc1ccc(NC(=O)Nc2ccc3c(c2)C(=O)N([C@@H](C)CO)C[C@H](C)[C@@H](CN(C)C)O3)cc1` gave AF4-AF9 inh -0.9.
For CC(C)NC(=O)N(C)C[C@@H]1OCCCC[C@@H](C)Oc2ccc(NS(C)(=O)=O)cc2C(=O)N([C@@H](C)CO)C[C@H]1C the results were AF4-AF9 inh 0.2.
For O=C(C1CCCCC1)N1CC(=O)N2[C@H](C1)[C@H](c1ccc(Br)cc1)[C@@H]2CO the results were AF4-AF9 inh -1.0.
`CCN1CC(=O)N2[C@H](C1)[C@@H](c1ccc(Br)cc1)[C@@H]2CO` gave AF4-AF9 inh 2.6.
Screening C[C@@H]1CN([C@H](C)CO)C(=O)Cc2cc(NC(=O)C3CCCCC3)ccc2O[C@H]1CN(C)Cc1ccccc1 returned AF4-AF9 inh 1.7.
For OC[C@@H]1CN(Cc2ccc3c(c2)OCO3)C[C@H](n2cnc3c(N4CCN(c5ccccc5)CC4)ncnc32)O1 the results were AF4-AF9 inh 9.2.
CN(C)CCCNC(=O)C[C@@H]1CC[C@H]2[C@H](COc3ccc(NC(=O)c4ccc5c(c4)OCO5)cc3C(=O)N2C)O1 was read as AF4-AF9 inh 0.1.
`CC(C)C#Cc1ccc([C@@H]2[C@@H](CO)N(C(=O)C3CCC3)[C@H]2C#N)cc1` gave AF4-AF9 inh -0.1.
Screening O=C(Nc1cccc(Cl)c1)N[C@@H]1CC[C@@H](CCNC(=O)C2CCOCC2)O[C@@H]1CO returned AF4-AF9 inh 0.5.
Screening O=C([C@@H]1[C@@H](CO)[C@@H]2Cn3c(ccc(-c4cccc(F)c4)c3=O)[C@@H]2N1Cc1cocn1)N1CCCCC1 returned AF4-AF9 inh 0.0.
Screening C[C@H]1CN([C@@H](C)CO)C(=O)c2cc(NC(=O)NC3CCCCC3)ccc2O[C@H]1CN(C)C(=O)NC1CCCCC1 returned AF4-AF9 inh -2.6.
`COc1ccc(-c2cn(CC[C@H]3CC[C@H](NC(=O)Cc4ccccn4)[C@H](CO)O3)nn2)cc1` gave AF4-AF9 inh 1.4.
For COc1cc(NC(=O)N2CCc3nc(NCc4cccc(Oc5ccccc5)c4)ncc3C2)cc(OC)c1OC the results were AF4-AF9 inh -8.2.
Screening CCCNC(=O)N1CC2(C1)[C@H](c1ccccc1)[C@@H](CO)N2C(=O)C1CC1 returned AF4-AF9 inh -2.8.
Screening C[C@@H]1CN([C@H](C)CO)C(=O)c2cc(C#CC3(O)CCCC3)cnc2O[C@@H]1CN(C)C returned AF4-AF9 inh -1.6.
Screening O=C(Nc1ccc(F)cc1)N1C[C@H]2[C@@H](c3ccccc31)[C@@H](CO)N2Cc1cocn1 returned AF4-AF9 inh 2.8.
C[C@@H]1CN([C@@H](C)CO)C(=O)c2cccc(NC(=O)C3CCOCC3)c2O[C@H]1CN(C)S(=O)(=O)c1ccc(F)cc1 was read as AF4-AF9 inh -1.6.
Screening C[C@H](CO)N1C[C@H](C)[C@@H](CN(C)Cc2ccc(C(=O)O)cc2)Oc2c(NC(=O)Nc3ccc4c(c3)OCO4)cccc2C1=O returned AF4-AF9 inh 1.3.
`CC(C)NC(=O)N(C)C[C@H]1Oc2c(NC(=O)C3CCCCC3)cccc2C(=O)N([C@H](C)CO)C[C@H]1C` gave AF4-AF9 inh 1.1.
Screening Cc1noc(C)c1NC(=O)N(C)C[C@@H]1OCCCC[C@@H](C)Oc2ccc(NC(=O)Nc3ccc4c(c3)OCO4)cc2C(=O)N([C@@H](C)CO)C[C@H]1C returned AF4-AF9 inh 1.8.
For Cc1ccc(-c2ccc([C@@H]3[C@H](CO)N4C(=O)CN(C(=O)Nc5ccc(F)cc5)C[C@@H]34)cc2)cc1 the results were AF4-AF9 inh 1.1.
Screening COCCNC(=O)C1CCCN(C(=O)c2nc(C)oc2C)CC1 (stereo not given) returned AF4-AF9 inh -2.5.
`CC(C)NC(=O)Nc1ccc2c(c1)C(=O)N([C@H](C)CO)C[C@@H](C)[C@@H](CN(C)Cc1ccccc1)O2` gave AF4-AF9 inh -1.3.
`C[C@@H]1CN([C@H](C)CO)C(=O)Cc2cc(NS(=O)(=O)c3cn(C)cn3)ccc2O[C@H]1CN(C)S(=O)(=O)c1ccc(F)cc1` gave AF4-AF9 inh -3.0.

5 compounds drawn at random from the list so far:
`COc1ccc(-c2cn(CC[C@H]3CC[C@H](NC(=O)Cc4ccccn4)[C@H](CO)O3)nn2)cc1` gave AF4-AF9 inh 1.4.
Screening O=C([C@@H]1[C@@H](CO)[C@@H]2Cn3c(ccc(-c4cccc(F)c4)c3=O)[C@@H]2N1Cc1cocn1)N1CCCCC1 returned AF4-AF9 inh 0.0.
For Cc1ccc(-c2ccc([C@@H]3[C@H](CO)N4C(=O)CN(C(=O)Nc5ccc(F)cc5)C[C@@H]34)cc2)cc1 the results were AF4-AF9 inh 1.1.
For COc1cc(NC(=O)N2CCc3nc(NCc4cccc(Oc5ccccc5)c4)ncc3C2)cc(OC)c1OC the results were AF4-AF9 inh -8.2.
Screening COCCNC(=O)C1CCCN(C(=O)c2nc(C)oc2C)CC1 (stereo not given) returned AF4-AF9 inh -2.5.

The results go on:
For COc1cccc(S(=O)(=O)N[C@H]2CC[C@H](CCNC(=O)Nc3cc(F)ccc3F)O[C@H]2CO)c1 the results were AF4-AF9 inh 2.8.
`CC1(C(=O)NS(=O)(=O)c2cccc(Cl)c2)CCN1C(=O)CCc1cccs1` (stereo not given) gave AF4-AF9 inh -0.7.
Screening COc1ccc(S(=O)(=O)N(C)C[C@H]2OCCCC[C@@H](C)Oc3ccc(NC(=O)Nc4cccc5ccccc45)cc3C(=O)N([C@H](C)CO)C[C@@H]2C)cc1 returned AF4-AF9 inh -18.
`Cc1cccc(CN2CCN([C@H]3CS(=O)(=O)N[C@@H]3COCc3ccccc3)CC2)c1` gave AF4-AF9 inh 3.6.
For O=C(NCC(F)(F)F)[C@@H]1[C@@H](CO)[C@@H]2Cn3c(cccc3=O)[C@H]1N2CC1CC1 the results were AF4-AF9 inh -1.6.
`CC(C)NC(=O)N[C@@H]1C=C[C@H](CC(=O)NCCN2CCCC2)O[C@@H]1CO` gave AF4-AF9 inh -2.0.
Screening O=S(=O)(c1ccc(F)cc1)N1CCCCN2[C@H](CO)[C@@H](c3ccc(-c4ccccc4F)cc3)[C@@H]2C1 returned AF4-AF9 inh -4.6.
O=C(c1ccc(F)cc1)N1CCCCN2[C@H](C1)[C@@H](c1ccc(/C=C/c3ccccc3)cc1)[C@@H]2CO was read as AF4-AF9 inh 1.6.
Screening Fc1ccc(Nc2nc(NCc3cccs3)nc3ccsc23)cc1 returned AF4-AF9 inh 0.6.
`CCCC#Cc1ccc([C@@H]2[C@H]3CN(S(=O)(=O)Cc4ccccc4)CC(=O)N3[C@H]2CO)cc1` gave AF4-AF9 inh -2.5.
For CCOC(=O)CN1C(=O)N2C[C@H]3CON(C)[C@H]3C[C@H]2c2ccccc21 the results were AF4-AF9 inh -0.6.
CCN(CC)c1ccc(S(=O)(=O)N2CCOCC2)cc1NC(=O)COC(=O)/C=C/c1ccccc1 was read as AF4-AF9 inh 4.7.
Screening CC(C)c1cn(CC[C@H]2CC[C@@H](NC(=O)C3CC3)[C@@H](CO)O2)nn1 returned AF4-AF9 inh -2.0.
For CC(C)NC(=O)Nc1ccc2c(c1)CC(=O)N([C@@H](C)CO)C[C@H](C)[C@H](CN(C)Cc1ccc(C(F)(F)F)cc1)O2 the results were AF4-AF9 inh 0.0.
`COc1ccc(CN(C)C[C@@H]2Oc3ccc(NC(=O)Cc4ccccc4)cc3C(=O)N([C@@H](C)CO)C[C@@H]2C)cc1` gave AF4-AF9 inh -1.5.

Already shown: entries from further up.
For COc1cccc(S(=O)(=O)N[C@H]2CC[C@H](CCNC(=O)Nc3cc(F)ccc3F)O[C@H]2CO)c1 the results were AF4-AF9 inh 2.8.
`CC1(C(=O)NS(=O)(=O)c2cccc(Cl)c2)CCN1C(=O)CCc1cccs1` (stereo not given) gave AF4-AF9 inh -0.7.
Screening COc1ccc(S(=O)(=O)N(C)C[C@H]2OCCCC[C@@H](C)Oc3ccc(NC(=O)Nc4cccc5ccccc45)cc3C(=O)N([C@H](C)CO)C[C@@H]2C)cc1 returned AF4-AF9 inh -18.

The listing continues.
C[C@@H]1CN([C@H](C)CO)C(=O)Cc2cc(NC(=O)NC3CCCCC3)ccc2O[C@H]1CN(C)Cc1ccccc1 was read as AF4-AF9 inh 3.1.
Screening CCc1nc2ccc(C(=O)Nc3cccc(OC)c3)cn2c1N(C)Cc1ccc(OC)cc1 returned AF4-AF9 inh 1.5.
Screening C[C@@H]1CN([C@H](C)CO)C(=O)CCCn2cc(nn2)CO[C@H]1CN(C)S(=O)(=O)c1ccccc1F returned AF4-AF9 inh -0.4&1.9&-0.7.
Screening CCCCN1C(=O)C(=O)NC[C@@H]1CC1CCCCC1 returned AF4-AF9 inh 0.2.
CC1=C(C(=O)N2CCCCCC2)CC(CC(=O)NC(c2ccccc2)c2ccccc2)C(=O)N1CCC1=CCCCC1 (stereo not given) was read as AF4-AF9 inh 1.0.
For Cc1ccc(S(=O)(=O)N(C)C[C@@H]2Oc3ncc(C#CCC(C)C)cc3C(=O)N([C@H](C)CO)C[C@@H]2C)cc1 the results were AF4-AF9 inh -3.0.
For CCNC(=O)C[C@@H]1CC[C@@H]2[C@H](COc3ccc(NC(=O)Nc4ccccc4C)cc3C(=O)N2C)O1 the results were AF4-AF9 inh -0.9.
COc1ccc(NC(=O)CCNC(=O)c2ccccc2Cl)cc1S(=O)(=O)N1CCCCC1 was read as AF4-AF9 inh -4.2.
O=C(C[C@@H]1CC[C@H]2[C@@H](COC[C@@H](O)CN2C(=O)c2ccccc2F)O1)N1CCOCC1 was read as AF4-AF9 inh -1.0.
Screening COc1cccc(CN2[C@H](CO)[C@@H]3c4ccccc4N(C(=O)C4CC4)C[C@@H]32)c1 returned AF4-AF9 inh -0.8.
CCNC(=O)C1(C)CCCCN1Cc1ccc(C#N)cc1 (stereo not given) was read as AF4-AF9 inh -0.5.
Screening CCN1[C@H](C(=O)Nc2ccccc2)[C@@H](CO)[C@@H]2Cn3c(ccc(-c4ccccc4)c3=O)[C@@H]21 returned AF4-AF9 inh 1.4.
CCCN(C[C@@H]1N[C@@H](CO)[C@H]1c1ccc(-c2cccnc2)cc1)C(C)=O was read as AF4-AF9 inh -2.1&0.2.
C[C@H]1CN([C@@H](C)CO)C(=O)c2cccc(NC(=O)Nc3ccc(F)cc3)c2O[C@H]1CN(C)CC1CC1 was read as AF4-AF9 inh inconclusive.
Screening C[C@H](CO)N1C[C@H](C)[C@H](CN(C)C(=O)Nc2ccccc2)OCCCC[C@H](C)Oc2ccc(NS(=O)(=O)c3ccc(Cl)cc3)cc2C1=O returned AF4-AF9 inh 4.5.
Screening C[C@H]1CN([C@@H](C)CO)C(=O)c2cccc(NC(=O)Nc3ccccc3)c2O[C@H]1CN(C)C(=O)Nc1ccccc1 returned AF4-AF9 inh 0.9.
Screening O=[N+]([O-])c1ccccc1SNc1ccccc1 returned AF4-AF9 inh 16.
`COc1ccc(-c2ccc([C@@H]3[C@@H](CO)N(C(=O)NC4CCCC4)[C@H]3C#N)cc2)cc1` gave AF4-AF9 inh -17.
CO[C@@H]1CN(C)C(=O)c2cc(NC(=O)C3CCC3)ccc2OC[C@@H](C)N(Cc2ccccn2)C[C@@H]1C was read as AF4-AF9 inh -1.1.
For C[C@@H]1CN([C@H](C)CO)C(=O)c2cc(C#Cc3cccc(F)c3)cnc2O[C@@H]1CN(C)C(=O)C1CC1 the results were AF4-AF9 inh -3.5.
O=C(NC[C@H]1N[C@H](CO)[C@@H]1c1ccc(C2=CCCC2)cc1)c1ccccc1 was read as AF4-AF9 inh 8.0.
`CC(C)NC(=O)N(C)C[C@H]1Oc2ccc(NS(=O)(=O)c3cn(C)cn3)cc2CC(=O)N([C@H](C)CO)C[C@H]1C` gave AF4-AF9 inh -1.0.
`COc1ccc(-c2ccc([C@H]3[C@@H](C#N)N(C(=O)NC(C)C)[C@@H]3CO)cc2)cc1` gave AF4-AF9 inh -0.3.
Screening CC(C)NC(=O)Nc1cccc2c1O[C@@H](CN(C)S(=O)(=O)c1ccc(F)cc1)[C@H](C)CN([C@@H](C)CO)C2=O returned AF4-AF9 inh -2.5.
`CCCN(C)C[C@H]1OCCCC[C@H](C)Oc2ccc(NC(=O)c3ccccc3)cc2C(=O)N([C@@H](C)CO)C[C@H]1C` gave AF4-AF9 inh 5.0.
Cc1ccccc1C(=O)OCC(=O)NCC1COc2ccccc2O1 (stereo not given) was read as AF4-AF9 inh -4.4.
`C[C@@H]1CCCCO[C@H](CN(C)C(=O)Nc2ccccc2)[C@H](C)CN([C@@H](C)CO)C(=O)c2cc(NS(=O)(=O)c3cccs3)ccc2O1` gave AF4-AF9 inh 2.5.
`CNC(=O)c1cc(NC(=O)N(CCC#N)CCN(C(=O)NC(Cc2ccccc2)C(=O)NC(CC(C)C)C(=O)NC)c2ccccc2)ccc1OC` (stereo not given) gave AF4-AF9 inh -25.
Screening CCCNC(=O)N(C)C[C@@H]1Oc2ncc(-c3ccc(F)cc3)cc2C(=O)N([C@@H](C)CO)C[C@H]1C returned AF4-AF9 inh -1.9.

High-throughput results deposited in PubChem BioAssay by Broad Institute.

This is a subset. The share of hits here may be higher or lower than overall.
